TRPML1 ag – human mucolipin-1 channel agonism; activation, % (concentration not given with the values); Q9GZU1; actives 0.12% (n = 410,000); TRPML1-expressing cells, Ca2+ dye fluorescence, FDSS; host cell line not named in the record; reference of the full effect not given here; in the data active = activation above about 50%; inconclusive = about 30% to 50%; inactive = below about 30%; note: 0% is about no effect; the text of the record puts the active cut at 80%
Target sequence (Q9GZU1 whole entry, looked up): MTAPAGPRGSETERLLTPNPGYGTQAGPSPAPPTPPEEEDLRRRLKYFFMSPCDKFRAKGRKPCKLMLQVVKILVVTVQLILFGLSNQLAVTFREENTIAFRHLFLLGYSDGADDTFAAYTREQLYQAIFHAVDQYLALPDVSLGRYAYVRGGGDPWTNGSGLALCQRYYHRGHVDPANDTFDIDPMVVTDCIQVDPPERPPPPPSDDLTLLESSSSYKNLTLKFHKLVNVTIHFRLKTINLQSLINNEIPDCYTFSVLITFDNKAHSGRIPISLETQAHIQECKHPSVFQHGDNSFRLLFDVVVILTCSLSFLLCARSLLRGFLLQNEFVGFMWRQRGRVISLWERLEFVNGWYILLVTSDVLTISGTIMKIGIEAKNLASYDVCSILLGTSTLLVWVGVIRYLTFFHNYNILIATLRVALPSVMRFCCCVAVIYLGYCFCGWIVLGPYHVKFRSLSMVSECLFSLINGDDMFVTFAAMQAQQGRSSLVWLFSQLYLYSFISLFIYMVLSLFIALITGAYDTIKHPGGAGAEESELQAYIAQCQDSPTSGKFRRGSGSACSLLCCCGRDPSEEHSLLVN
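Calcium fluorescence on an FDSS kinetic reader gave the read-out. Tet-induced TRPML1-DL cells were plated overnight, dye-loaded (Ca8 with quencher, 45-90 min, room temperature, dark), then read 110 s after compound addition, and again 110 s after 4uM final 54-4 (EC80).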
PINK1 expr mod – changes PINK1 expression | PINK1 immunofluorescence, high-content cytometry, 24 h | actives 0.2% (n = 410,000) | Potency, µM (doses to about 76.6 µM), for inactives: at the top dose activation (PINK1 increase), usual class: activators; active = well fitted activation curve with a large enough effect; inconclusive = small, poorly fitted or top-dose-only effect; inactive = flat fitted curve, though single readings scatter; cell line not stated here;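 note: potency is the fitted concentration of half-maximal effect; % of control where 0% means no effect; nearly all actives have a fitted effect of over 65% in size; a mitochondrial uncoupler was the plate control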
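PINK1 protein, normally rapidly degraded, was detected by immunofluorescence after 24 hour compound treatment of a stable cell line. Titration data (5 concentrations) came from laser-scanning cytometry, with CCCP-treated wells as controls.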
Six1-Eya2 blk – inhibitors of human Six1/Eya2 interaction; Q15475+O00167; AlphaScreen GST-Six1/His-Eya2 binding, biochemical; hits give low values; control for the full effect not named in the record; activity change, % (test concentration not listed); actives 0.56% (n = 360,000); AID 651725; in the data active = activity change below about -65%; inconclusive = about -30% to -65%; inactive = above about -30%; note: % is set by controls: 0 for no effect and ±100 for the full control effect; compound concentration not given in the record
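AlphaScreen with GST-Six1 and His-Eya2 (5X mix: 250 nM and 500 nM), glutathione donor and nickel acceptor beads; buffer 50 mM Tris pH 8.0, 300 mM NaCl, 1 mM TCEP; 1 h at 37 C in the dark.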
TRPML1 blocker – blocks the human TRPML1 channel | actives 0.02% (n = 390,000) | activity change, negative = inhibition, % (test concentration not listed) | Q9GZU1 | TRPML1-inducible cells, Ca2+ dye fluorescence, FDSS; hits give low values; inhibition of EC80 agonist-evoked calcium signal; in the data active means activity change below about -50%; inconclusive means about -30% to -50%; inactive means above about -30%;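 note: stimulus is agonist 54-4 at its EC80 concentration; % is set by controls: 0 for no effect and ±100 for the full control effect; compound concentration not given in the record; the text of the record puts the active cut at -80%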
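Tet-induced TRPML1-DL cells loaded with Ca8 no-wash calcium dye were read kinetically on FDSS. Compound addition was followed by EC80 agonist 54-4 (4 uM final); inhibition was read over 110 s.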
D2 ag – agonists of human D2 dopamine receptor (beta-arrestin); P14416; DiscoveRx PathHunter D2 beta-arrestin, luminescence, 90 min; 100% = 57 uM dopamine signal; activation, % (concentration not given with the values); actives 0.084% (n = 360,000); AID 624465; in the data active = activation above about 40%; inconclusive = about 15% to 40%; inactive = below about 15%; note: compound concentration not given in the record; the text of the record calls up to 30% inactive
Target sequence (P14416 whole entry, looked up): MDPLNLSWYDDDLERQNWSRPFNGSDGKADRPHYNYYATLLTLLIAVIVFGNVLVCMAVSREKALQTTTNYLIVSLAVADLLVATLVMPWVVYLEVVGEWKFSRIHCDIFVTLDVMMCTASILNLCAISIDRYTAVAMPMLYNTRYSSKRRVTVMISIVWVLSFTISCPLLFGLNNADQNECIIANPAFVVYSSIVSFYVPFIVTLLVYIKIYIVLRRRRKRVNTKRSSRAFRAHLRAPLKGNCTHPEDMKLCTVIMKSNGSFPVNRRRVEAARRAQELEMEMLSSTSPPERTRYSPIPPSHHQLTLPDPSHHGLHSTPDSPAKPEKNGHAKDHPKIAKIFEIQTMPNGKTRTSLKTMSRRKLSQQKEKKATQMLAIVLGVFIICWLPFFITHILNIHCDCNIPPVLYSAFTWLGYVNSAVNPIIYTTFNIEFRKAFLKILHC
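Agonist mode: compounds alone added to overnight-plated D2 PathHunter cells for 90 min at 37 C, with 57 uM final dopamine (EC100) defining full response. Beta-arrestin recruitment detected by chemiluminescent reagent, read after 1 h at ambient temperature.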
CtBP-E1A inh – CtBP/E1A binding inhibition; actives 0.49% (n = 340,000); activity change, % (concentration not given with the values); AlphaScreen GST-E1A/His-CtBP binding, 1536-well; hits give low values; control for the full effect not named in the record; in the data active means activity change below about -65%; inconclusive means about -30% to -65%; inactive means above about -30%; note: % is set by controls: 0 for no effect and ±100 for the full control effect
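Homogeneous bead-based format: GST-tagged E1A captured on glutathione donor beads, His-tagged CtBP on nickel acceptor beads; compounds precede bead addition by 2 h at 37 °C.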
* marks the source's active call; other numbers are inactive results; ? = inconclusive; . = not tested or not shown; & = joins results of further samples; [ ] = another dose, or the depositor's remark. Outcome played no part in choosing rows, and some 1% of all compounds hit somewhere here.

SMILES | TRPML1 ag | PINK1 expr mod | Six1-Eya2 blk | TRPML1 blocker | D2 ag | CtBP-E1A inh
CC(C)(C)c1ccc(NC(=O)CN2C(=O)NC(C)(C3CC3)C2=O)cc1 (stereo unspecified) | 0.1 | -1.5% | 0.9 | 1.6 | -3.7 | 3.3
CN1CCN(c2ccc(Cl)cc2NC(=O)c2cccc(S(=O)(=O)N(C)C)c2)CC1 | 0.1 | -0.4%[38.3 µM] | -10.6 | 8.5 | 3.5&-1.1 | 9.7
COc1cccc(COC(=O)c2nn(-c3ccccc3)nc2N)c1 | -0.4&2.4 | 0.0%&-5.0% | -10.7 | -9.8&-7.6 | 7.5 | 0.0
O=C(CCCN1C(=O)/C(=C/c2ccc(F)cc2)SC1=S)Nc1ccc(C(=O)O)cc1 | -0.1 | 0.3% | -1.4 | 3.3 | -2.9 | 0.6
O=C1Nc2ccccc2C1=NN1CCCCCC1 | -0.6 | 1.8% | -7.4 | -2.8 | -8.3 | -0.5
O=C(/C=C/c1ccc2c(c1)OCO2)c1ccc(F)cc1 | -0.2 | 1.4% | -5.4 | -14.5 | 1.4 | 1.7
Cc1ccc(OCC(=O)NN=C2c3ccccc3-c3ccccc32)cc1 | 0.1 | 10.0%[38.3 µM] | -0.4 | 0.0 | -3.0 | 6.5
Cc1nn(C)c(C)c1NC(=O)Nc1ccc(Cl)c(Cl)c1 | 0.9 | 0.9% | 0.4 | -1.4 | -5.0 | -3.9
Cc1ccc(Cl)cc1N1CCN(S(=O)(=O)c2ccc3[nH]c(=O)ccc3c2)CC1 | -0.6 | 2.3% | -1.8 | 1.3 | -1.6 | -9.0
Cc1cccc(C(=O)NCCCNC(=O)c2cccc(C)c2)c1 | -0.7 | 0.4% | -9.7 | 7.3 | -2.7 | 2.1
Cc1cccc(NC(=S)NNC(=S)NCc2ccccc2)c1 | -0.6 | -18.8%[38.3 µM] | -6.0 | 0.1 | -1.7 | -5.4
COCCCNC(=O)C1CCCN(S(=O)(=O)c2ccc(C)cc2)C1 (stereo unspecified) | -0.4 | 1.0%[38.3 µM] | 2.4 | 1.4 | -0.9 | 17.8
CN(C)CCCNC(=O)C(=O)NCC1OCCN1S(=O)(=O)c1cc(F)ccc1F (stereo unspecified) | 0.2 | 5.0% | 2.4 | 11.3 | 0.3 | 5.3
COc1ccccc1N1CCN(c2ncccc2-c2nc(-c3ccc(Cl)cc3)no2)CC1 | -0.6 | -1.3% | . | -26.7 | . | .
CCCCCCn1c(SCC(=O)c2c(N)n(C)c(=O)n(C)c2=O)nc2ccccc21 | -0.3 | 10.8% | 0.4 | 20.9 | 0.2 | 1.4
Cc1nc(CN2CCN(S(=O)(=O)c3c(Cl)cc(Br)cc3Cl)CC2)cs1 | 0.4 | -0.6% | -12.8 | 9.1 | 10.2 | 1.5
CCCc1c(-c2ccc(F)cc2)ncn1Cc1ccccc1OC | -0.7 | ? | -13.7 | . | . | -1.3
COC(=O)c1sc(S(=O)(=O)Nc2ccc(C)c(C)c2)c(C(=O)OC)c1C | 3.2 | 1.8% | 16.4 | -6.5 | -4.0 | .
Cc1ccc(C(=O)N/C(=C\c2sccc2C)C(=O)NCCCN2CCOCC2)cc1 | -0.2 | 3.2% | -3.6 | 6.0 | -3.0 | 5.3
CCN(CC)CCCNC(CC(=O)Nc1cccc([N+](=O)[O-])c1)C(=O)O (stereo unspecified) | -0.4 | -0.4% | -6.4 | -16.4 | -5.8 | -6.1
CCN(CC)C(=O)C1=C(C)N(Cc2ccc(OC)cc2)C(=O)C(CC(=O)NCc2ccco2)C1 (stereo unspecified) | 2.2 | 1.9% | 11.7 | -7.4 | -1.8 | -19.9
Cc1cc(C)c(N)cc1C | -0.4 | 1.2% | 15.4 | -4.1 | -1.7 | 0.0
COCC(=O)N1CCC(Oc2ccc(C(=O)NCc3cnc(C)cn3)cc2)CC1 | -1.1 | 0.1% | 13.4 | -3.6 | -4.0 | -11.5
CC1(C(=O)NS(=O)(=O)c2ccccc2)CCN1C(=O)Cc1ccc(Cl)cc1Cl (stereo unspecified) | -0.2 | 1.7% | -5.5 | 7.9 | -7.0 | -1.1
CCOc1ccccc1C(=O)NCCCN1CCN(CCCNC(=O)c2ccccc2OCC)CC1 | 0.1 | . | -0.7 | -1.4 | 0.2 | -8.9
O=S(=O)(c1ccc(Oc2ccc(S(=O)(=O)N3CCOCC3)cc2)cc1)N1CCOCC1 | -0.2 | 0.7% | 10.3 | -3.4 | 3.0 | -2.8
CN1C(=O)COc2ccc(C(=O)c3ccccc3C(=O)O)cc21 | 0.8 | -0.9% | 0.5 | 16.7 | -2.7 | 2.3
COc1ccc(CNS(=O)(=O)c2cc(C(=O)Nc3cc(Cl)cc(Cl)c3)ccc2F)cc1 | 1.1 | 7.5% | . | 9.7 | . | .
COc1cccc(Cn2c(NCC(C)C)nc3c2c(=O)n(C)c(=O)n3C)c1 | 1.6 | -2.8%[38.3 µM] | -9.0 | 18.1 | -4.2 | -4.3
O=C(CNC(=O)c1ccccc1F)NCc1cccnc1 | -0.8 | 0.7% | -1.0 | 2.8 | -3.8 | 4.5
O=C(NCCC(=O)N(Cc1ccco1)Cc1cccs1)c1ccc(Br)cc1 | 1.6 | 3.8% | -7.3 | 3.1 | -3.1 | -0.8
CN(C)CCOC(=O)CC12CC3CC(C1)CC(CC(=O)OCCN(C)C)(C3)C2 | 0.1 | 0.3% | -1.4 | -11.8 | -2.9 | -2.5
Cc1onc(-c2ccccc2Cl)c1C(=O)N1CCCc2ccccc21 | 1.2 | 0.6%[38.3 µM] | -6.2 | 13.4 | 1.6 | -19.0
Cc1ccc(CNC(=O)c2ccc(N3CCC4(CC3)CC(c3ccccc3)=NO4)c(NC(=O)c3cccc(C)c3)c2)cc1 | -0.5 | -0.9% | 7.8 | 3.5 | -0.5 | 6.9
COc1ccc(-n2nc(C(=O)NCC(=O)NCCCN3CC(C)CC(C)C3)c3ccccc3c2=O)cc1OC (stereo unspecified) | -0.4 | 1.5% | -2.3 | 4.2 | 4.5 | 2.4
O=C(Cn1nc(C(=O)O)c2ccccc2c1=O)Nc1ccc(F)cc1F | 1.7 | 3.8% | -5.1 | -9.4 | 1.6 | 3.6
O=C(NCc1ccco1)c1nn(-c2ccccc2)c(=O)c2ccccc12 | 1.8 | -2.3% | 7.8 | -14.8 | -2.2 | 20.4
COc1ccc(C(=O)OC(C)C(=O)NCC2CCCCC2)cc1S(=O)(=O)N1CCOCC1 (stereo unspecified) | -0.4 | 0.0% | 7.4 | -11.2 | 7.1 | 3.8
COC(=O)[C@H](Cc1ccc(O)cc1)NC(=O)Cn1cnc2c(NCc3ccccc3)ncnc21 | -0.1 | 1.5% | -3.3 | 20.5 | -3.0 | -15.6
O=C(NS(=O)(=O)c1ccccc1[N+](=O)[O-])c1ccccc1 | 0.2 | 1.6% | 3.5 | 3.7 | -4.6 | 1.9
CCc1ccc([C@@H]2CC=C(C(=O)O)[C@H](c3ccc(C)cc3)N2S(=O)(=O)c2ccc(C)cc2)cc1 | -0.4 | 0.3% | -7.4 | 34.4 | -1.2 | 5.0
Cc1cc(C=O)sc1[B-](F)(F)F | 0.7 | -0.4% | -0.9 | 18.1 | -1.9 | -19.3
CCc1ccccc1NC(=O)c1cc(=O)c2ccccc2o1 | 1.0 | 0.0% | 4.9 | -19.9 | 1.4 | .
CSc1nc(NCCN(C)C)c2sc3nc(-c4ccco4)c4c(c3c2n1)CCC4 | -0.1 | -2.6% | -4.5 | -8.7 | -6.9 | 1.5
OCCC1CN(Cc2ccc(Oc3ncccn3)cc2)CCN1C1CCCCC1 (stereo unspecified) | -0.3 | 1.7% | 4.9 | -4.1 | -2.4 | .
CCn1c(SCC(=O)N2CCCC2=O)nc2ccccc21 | 0.1 | 0.4% | 4.1 | 5.9 | -1.8 | 2.7
NC(=O)c1ccc(N2CCN(c3ccccc3F)CC2)c([N+](=O)[O-])c1 | 0.0 | 0.0% | -4.4 | 5.6 | -2.6 | -10.1
NC1C=CC=C(C(=O)O)C1 (stereo unspecified) | 0.6 | 1.5% | 7.3 | -7.2 | -3.0 | -6.6

Two entries picked at random from those above:
SMILES | TRPML1 ag | PINK1 expr mod | Six1-Eya2 blk | TRPML1 blocker | D2 ag | CtBP-E1A inh
CSc1nc(NCCN(C)C)c2sc3nc(-c4ccco4)c4c(c3c2n1)CCC4 | -0.1 | -2.6% | -4.5 | -8.7 | -6.9 | 1.5
CCc1ccccc1NC(=O)c1cc(=O)c2ccccc2o1 | 1.0 | 0.0% | 4.9 | -19.9 | 1.4 | .

Carrying on:
SMILES | TRPML1 ag | PINK1 expr mod | Six1-Eya2 blk | TRPML1 blocker | D2 ag | CtBP-E1A inh
CCCOC(=O)Nc1nc2ccccc2o1 | 3.2 | -1.3% | -6.3 | -6.2 | -1.4 | -9.3
Cc1ccc(OCC(=O)NCCNC(=O)c2ccncc2)cc1 | -0.5 | -1.0% | 46.7 | 2.2 | -5.8 | 1.1
Cc1ccccc1NC(=S)NC(=O)/C=C/c1ccco1 | -0.4 | -0.7% | 0.2 | -15.6 | -2.7 | -19.3
CSc1nnc(Cc2ccc3c(c2)OCO3)o1 | -0.9 | 0.5% | -0.9 | -7.5 | -0.8 | 4.0
CS(=O)(=O)N(CC(=O)NC1CCCC1)c1ccc(Oc2ccccc2)cc1 | 1.9 | -0.7% | 0.5 | -2.4 | -4.0 | .
CC(C(=O)NCC1CCCCC1)N1CCN(S(=O)(=O)c2cccs2)CC1 (stereo unspecified) | -0.4 | 2.2% | 13.0 | -5.9 | -2.3 | -4.3
O=C(Cc1cccc2ccccc12)N/N=C/c1ccncc1 | 0.8 | 1.0% | -2.5 | -16.5 | -0.8 | -0.8
Cc1cc2c3c(c1C)C1(C(=O)N3C(C)(C)CC2C)C(C#N)=C(N)Oc2n[nH]c(C)c21 (stereo unspecified) | 0.5 | ? | -3.9 | -0.4 | 3.5 | 10.4
CCC(C)NC(=O)C1CCC(CNS(=O)(=O)c2ccc3c(c2)CC(C)N3C(C)=O)CC1 (stereo unspecified) | -0.9 | -1.6% | 0.3 | -12.7 | -11.0 | 3.7
O=C(Nc1ccc(N2CCOCC2)cc1)c1ccc(Cl)nc1 | -0.5 | 1.1% | 3.3 | 44.7 | -3.0 | -0.4
COc1ccc(NC(=O)CCNC(=O)Cn2cnc3ccccc3c2=O)c(OC)c1 | -1.0 | 0.3% | 0.3 | -0.1 | -4.9 | 3.5
O=[N+]([O-])c1ccc(N2CCN(C(=S)Nc3ccccc3)CC2)cc1 | -0.9 | 1.1% | 2.4 | -0.7 | 2.6 | -0.5
Cc1ccccc1Cn1ccc(-c2ccc3c(c2)OCO3)n1 | 1.5 | 3.1% | 22.1 | -6.8 | -1.4 | 17.4
NC(=S)NN=C1CCC2(CCCCC2)CC1 | 0.4 | 2.3% | 2.1 | -15.0 | -1.5 | 3.9
COc1ccccc1CNC(=O)CSc1ncc2c(n1)-c1cc(Cl)ccc1N(Cc1ccccc1)S2(=O)=O | 1.5 | 0.4% | . | -4.5 | . | .
CCOc1ccc(NC(=O)Cn2cc(C(=O)c3ccc(CC)cc3)c(=O)c3cc(C)ccc32)cc1 | 0.8 | 0.7% | . | -23.2 | . | .
COc1ccccc1C(=O)COC(=O)CSCC(=O)Nc1cc(C)on1 | -0.2 | -0.8% | -6.8 | 16.6 | -2.9 | 7.4

Screens from PubChem.
